ALR inh = human ALR oxidase inhibition via reduced H2O2 | purified ALR, DTT oxidation, H2O2 HRP-luminol luminescence | inhibition, % (no concentration beside the values) | actives 3.8% (n = 290,000);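 active means mean and each replicate at 75% or more; inconclusive means only one of the two met; inactive means neither met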;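 further: stock transfer was 7.5 nL into about 7.5 µL; 0% = neutral wells and 100% = wells with inactivated enzyme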
Target sequence (P55789 whole entry, looked up): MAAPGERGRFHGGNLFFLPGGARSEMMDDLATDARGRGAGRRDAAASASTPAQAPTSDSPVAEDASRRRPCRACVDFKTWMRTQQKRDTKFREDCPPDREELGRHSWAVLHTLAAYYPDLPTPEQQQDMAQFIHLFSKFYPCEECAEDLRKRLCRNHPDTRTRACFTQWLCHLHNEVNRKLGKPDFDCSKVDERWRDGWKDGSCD
Calb FLC = affects C. albicans growth with fluconazole; C. albicans CaCi-2 (fluconazole-resistant clinical isolate) + fluconazole, Alamar Blue growth, 48 h; growth inhibition, % (concentration not given with the values); actives 0.57% (n = 300,000);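 active means most replicates above 75%; inconclusive means exactly half above 75%; inactive means most below 75%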;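 further: all wells also contain fluconazole at 8 µg/ml as a sub-toxic cotreatment; 0% = median of DMSO wells and 100% = median of geldanamycin control wells; wells of about 8 µL received 7.5 nL stock; the first replicate is given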
rRNA inh HTS = selective bacterial rRNA inhibition in E. coli; E. coli WT GFP vs humanized-ribosome RFP mutants, fluorescence, 24 h; active compounds read low; DMSO median 0, no signal -100; GFP signal change (wild-type ribosome), % (no concentration beside the values); actives 1.6% (n = 350,000);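 active means significant combined selectivity score with lowered wild-type GFP, culture density cut under 30%, mutant RFP and density less affected; inactive means any of these conditions unmet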; further: one replicate is shown; some compounds called inactive have numbers as strong as hits
FGF22 binding = shifts melting point of recombinant human FGF22; Q9HCT0; recombinant FGF22 thermal shift, SYPRO orange fluorescence; percent of sucrose octasulfate shift, DMSO zero; calls only at 9.99 µM; actives 1.5% (n = 340,000);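 active means melting point raised past a set limit in the mean and every replicate; inconclusive means no clear call; three in four hits are not shown here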
Target sequence (Q9HCT0 whole entry, looked up): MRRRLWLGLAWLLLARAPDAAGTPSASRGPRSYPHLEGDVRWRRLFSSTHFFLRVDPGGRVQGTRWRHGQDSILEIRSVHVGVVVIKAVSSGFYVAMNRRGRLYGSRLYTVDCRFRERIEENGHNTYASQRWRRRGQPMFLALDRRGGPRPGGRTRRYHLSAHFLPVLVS
MLL AF4-AF9 inh = inhibitors of human MLL-AF4/AF9 interaction. AlphaScreen, biotin-AF4 peptide binding to FLAG-AF9. actives 0.47% (n = 350,000). inhibition, % at 10 µM. P42568;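 active means every replicate reaching a set inhibition limit, whatever the replicate mean, cut at about 25% in these data; inconclusive means mean inhibition reaches that limit but some replicates miss it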;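 further: 0% = plate neutral control median and 100% = total signal loss; the record names both 10 and 1 µM as test concentration; the first replicate is given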
Target sequence (P42568 whole entry, looked up): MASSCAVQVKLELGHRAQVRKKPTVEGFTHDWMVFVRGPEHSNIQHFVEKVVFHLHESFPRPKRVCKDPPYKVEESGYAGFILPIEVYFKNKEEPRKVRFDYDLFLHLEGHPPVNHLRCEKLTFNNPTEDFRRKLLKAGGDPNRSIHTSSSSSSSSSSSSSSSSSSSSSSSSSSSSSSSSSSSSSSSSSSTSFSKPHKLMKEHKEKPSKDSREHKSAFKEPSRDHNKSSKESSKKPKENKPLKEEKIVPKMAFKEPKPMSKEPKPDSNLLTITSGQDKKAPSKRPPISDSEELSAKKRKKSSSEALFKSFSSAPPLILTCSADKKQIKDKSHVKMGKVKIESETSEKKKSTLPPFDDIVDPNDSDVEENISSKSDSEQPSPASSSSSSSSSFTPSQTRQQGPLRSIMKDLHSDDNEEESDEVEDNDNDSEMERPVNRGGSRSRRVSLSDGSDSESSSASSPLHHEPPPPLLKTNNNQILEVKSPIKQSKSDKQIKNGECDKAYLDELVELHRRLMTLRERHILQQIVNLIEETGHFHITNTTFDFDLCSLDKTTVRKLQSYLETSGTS
Beta apoptosis = blocks beta cell apoptosis; actives 0.8% (n = 300,000); AID 435005; protection from apoptosis, % (no concentration beside the values); INS-1E cytokine-induced death, ATP luminescence, 48 h; percent of positive-control rescue, neutral wells zero;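 active means all replicates at 75% or more, or half of them and the mean; inconclusive means half reach 75% but not the mean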;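 further: 0% = cytokine-treated negative control wells and 100% = positive control rescue; higher means more ATP so stronger rescue from cytokine killing; wells of about 40 µL received 100 nL stock; the first replicate is given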
RanGTP-Impb inh = inhibitors of RanGTP-importin-beta interaction, primary screen, biochemical, FRET, CFP-Ran, YFP-importin-beta, homogeneous. cell-free CFP-Ran/YFP-importin-beta FRET ratio. inhibition, % (no concentration beside the values). actives 1.1% (n = 300,000);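 active means most replicates above 15%; inconclusive means exactly half above 15%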;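 further: 0% = DMSO wells and 100% = Ran loaded with GDP instead of GTP; wells of about 40 µL received 100 nL stock; the first replicate is given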
T cruzi repl = blocks replication of Trypanosoma cruzi. T. cruzi beta-gal in NIH3T3, luminescence, 90 h. inhibition, % (concentration not given with the values). actives 1.4% (n = 300,000). AID 1885;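 active means mean inhibition across valid replicates above about 55%, limit read from the data; inconclusive means mean below that limit but half or more replicates reach it; inactive means mean below it, under half of replicates reach it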;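 further: signal also drops with host cell toxicity which is not excluded here; 0% = plate median of DMSO wells and 100% = zero luminescence signal; higher percent means less beta-gal luminescence so fewer parasites; stock transfer was 50 nL into about 50 µL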
rRNA inh HTS OD600 = also measured in rRNA inh HTS; calls as there; OD600 change, %; measured here: OD600 growth;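 optical density of the mix in the first replicate; 0 = DMSO median and -100 = no signal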
rRNA inh HTS RFP = second read-out of rRNA inh HTS, no call of its own (marks repeat the call); RFP signal change, %; measured here: RFP humanized mutant strains;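 first replicate; 0 = DMSO median and -100 = no signal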
The depositor's hits bear a star; i = inactive; ? = inconclusive; . = no result given.

Each structure is followed by: ALR inh	Calb FLC	rRNA inh HTS	rRNA inh HTS OD600	rRNA inh HTS RFP	FGF22 binding	MLL AF4-AF9 inh	Beta apoptosis	RanGTP-Impb inh	T cruzi repl
- O=C(NCc1ccccc1)C1CCCN(S(=O)(=O)c2cccs2)C1 (stereo not drawn)
  -8	-8	.	.	.	.	.	-10	4.3	18
- COc1ccccc1C/C(N)=N/OC(=O)c1ccc2c(c1)OCO2
  .	19	-17	-10	4.1	i	-2.4	-1	-6.0	2
- COCCn1nnnc1C(c1cccs1)N1CCN(c2cc(C)ccc2C)CC1 (stereo not drawn)
  -2	10	.	.	.	.	.	1	0.3	10
- Cc1ccc(C)c(OCCCC(=O)Nc2nccs2)c1
  2	-3	.	.	.	.	.	.	-0.8	-6
- Cc1c(C(=O)Nc2ccccn2)oc2ccc(Br)cc12
  2	27	-3	6	-3.4	i	-2.2	0	1.9	-2
- CCCCCNCc1cccn1C
  0	-8	.	.	.	.	.	-3	-2.8	6
- COc1ccc(S(=O)(=O)N2CCCCC2)cc1NC(=O)c1cc(C)on1
  -2	1	15	17	-3.3	.	1.3	-8	1.2	3
- COC(=O)c1sccc1NC(=O)c1c(C)noc1C
  0	27	.	.	.	.	.	1	1.1	-4
- O=C(CN1CCCCCC1)Nc1ccc(Oc2ccccc2)cc1
  .	-11	-31	-29	-4.9	i	5.9	-3	-0.7	27
- CCc1ccc(C2CC(=O)Nc3c2c(=O)nc2c(C)cccn32)cc1 (stereo not drawn)
  14	-18	7	2	0.5	i	-4.5	-5	0.0	-4
- O=C(Nc1ccccc1)Nc1ccc(Oc2cccnc2)nc1
  .	-6	3	-8	-1.0	i	-0.7	6	0.7	-18
- CCCc1ccc2oc(C(=O)N3CCC(COC)C3)c(C)c2c1 (stereo not drawn)
  .	7	-15	-19	-8.5	i	-4.8	0	2.0	8
- Cc1nnc(SCC(=O)Nc2ccc3c(c2)OCCO3)s1
  -6	-14	.	.	.	.	.	9	-1.0	4
- Cc1ccc2cc(CCNC(=O)c3ccco3)c(=O)[nH]c2c1
  -1	-4	.	.	.	.	.	-5	2.9	-9
- Cc1ccc(OCc2cc(C(=O)N(C)Cc3nccn3C)no2)cc1C
  .	-12	-4	-8	0.5	i	4.8	5	0.1	6
- CCOC(=O)/C(=C/c1cn(C)c2ccccc12)NC(=O)c1ccccc1
  -2	-2	6	-10	6.1	i	6.3	-2	-0.2	8
- COc1cccc(CN2CC(C(=O)N3CCN(C(C)C)CC3)CCC2=O)c1 (stereo not drawn)
  1	-2	13	17	0.8	i	0.3	-1	6.0	3
- CC/C(=C\c1oc2cc3ccccc3cc2[n+]1CC)Nc1ccccc1
  0	47	-1	-4	0.7	i	0.2	18	?	11
- Cc1cc(N2CCOCC2)nc2ccc(NC(=O)C3CCC(C)CC3)cc12 (stereo not drawn)
  1	4	.	.	.	.	.	7	-1.1	8
- O=S(=O)(Nc1cccc(-c2cn3ccsc3n2)c1)c1ccc(F)cc1
  38	62	.	.	.	.	.	4	-0.3	7
- Cc1ccc2c(n1)sc1c(-c3ccc(Br)cc3)c(C#N)c(N)nc12
  10	.	.	.	.	.	.	17	79*	38
- COc1cc(C(C)=O)ccc1COc1ccc(C(=O)OC(C)C(=O)NC(N)=O)cc1OC (stereo not drawn)
  -9	-1	11	3	-3.8	i	?	-3	-1.7	-3
- CCOC(=O)CCCNC(=O)CN1CCC(c2nc3ccccc3s2)CC1
  .	-3	1	-4	2.9	i	0.4	0	4.5	21
- Nc1nonc1NC(=O)CSc1ncccc1C(=O)O
  .	-6	2	5	-0.1	i	-7.6	-1	-3.1	-2
- CC(C)[N+](C)(C)CC(O)CN(c1ccccc1)c1ccccc1 (stereo not drawn)
  98*	-8	4	6	1.2	i	-2.5	-7	2.2	-6
- COC(=O)c1sc(NC(=O)COc2ccc(OC)cc2)nc1C
  -13	?	.	.	.	.	.	-5	3.6	-18
- Cc1ccc2nc(N(CCCN(C)C)C(=O)c3ccc(S(=O)(=O)N4CCc5ccccc5C4)cc3)sc2c1
  -2	-1	2	5	-1.1	i	5.4	114*	0.5	28
- COc1ccc(N2CCN(C(=S)Nc3ccc(C)cc3)CC2)cc1
  14	-14	-5	-3	-1.0	i	0.6	-12	-1.3	-24
- Cn1c(=O)c2c(nc(CN3CCCCC3)n2CCCc2ccccc2)n(C)c1=O
  -5	15	.	.	.	.	.	0	3.3	19
- Cc1c(NC(=S)NC(=O)c2cccc(Br)c2)c(=O)n(-c2ccccc2)n1C
  61	1	6	2	0.0	i	1.3	-11	2.8	-39
- N/C(=N\OC(=O)/C=C/c1ccccc1)c1ccc(Cl)cc1
  0	-2	5	7	-0.6	i	10	-5	-0.9	-1
- CCOc1ccccc1CNC(=O)c1c([N+](=O)[O-])c(C)nn1C
  3	?	8	21	13	i	-20	2	12	0
- CC(C)Oc1cccc(C(=O)Nc2ccc(N3CCN(S(C)(=O)=O)CC3)cc2)c1
  .	?	.	.	.	.	.	-4	-6.0	-8
- COc1cccc(N2C(=O)CN(Cc3ccc(OC)c(OC)c3)C2=S)c1
  -7	2	-6	9	5.4	i	0.3	-5	4.3	-4
- Cc1ccc(NC(=O)c2ccc3c(c2)C(=O)N(c2ccccc2C)C3=O)nc1
  1	.	11	18	5.0	i	0.3	7	.	.
- O=C(OC(C(=O)NCc1cccs1)c1ccc(F)cc1)c1ccco1 (stereo not drawn)
  8	-20	.	.	.	.	.	-6	-0.9	-17
- COc1ccc(C(=O)NNC(=O)COc2ccc(Cl)cc2C)cc1S(=O)(=O)N1CCOCC1
  -17	0	-10	-6	1.2	i	-1.8	0	0.3	-2
- COc1ccccc1C(=O)Nc1ccc2oc(-c3ccc(F)cc3)nc2c1
  -1	6	.	.	.	.	.	5	-4.4	8
- COc1ccccc1OCc1nnc(SCCN2CCOCC2)o1
  -1	8	.	.	.	.	.	8	2.4	-7
- O=C(/C=C/c1ccccc1)Nc1nnc(-c2ccco2)o1
  -11	60	9	9	1.1	i	-0.5	-7	0.6	-13
- CC(=O)Nc1ncc(Cc2cccc(Cl)c2)s1
  -5	-7	-3	4	-0.5	i	-6.0	-4	-2.3	-21
- O=C(Nc1cc(S(=O)(=O)N2CCCCC2)ccc1N1CCOCC1)c1cc(=O)[nH]c2ccccc12
  .	-10	12	9	3.1	.	-1.0	2	5.4	5
- O=C(CSc1nnc(COc2ccccc2Cl)o1)NC(=O)NC1CCCC1
  -18	20	-3	-9	1.3	i	-37	-4	0.3	3
- CC(=O)Nc1ccc(C(=O)OCC(=O)N2CC3(C)CC2CC(C)(C)C3)cc1 (stereo not drawn)
  3	.	4	0	-1.0	i	5.5	-1	.	.
- CCOC(=O)c1cnn(CCOC(=O)c2ccc(OC)cc2)c1NC(=O)c1ccc(OC)cc1
  0	22	.	.	.	.	.	1	-0.1	-12
- COc1ccc(N(CC(=O)N/N=C(\C)c2ccc(OC)c(OC)c2)S(=O)(=O)c2ccccc2)cc1
  -2	-2	2	2	3.4	i	-2.4	-8	?	3
- CN(Cc1ccccc1)C(=O)CSc1nnc(-c2ccco2)n1-c1ccccc1
  .	3	-20	-9	18	i	1.1	-6	-0.9	6
- CC1CCC(C(C)C)C(=O)/C1=C/c1ccc(N)cc1 (stereo not drawn)
  .	4	-35	-31	-18	i	6.4	3	-5.1	2
- COc1ccccc1C(=O)N1CCN(c2ccc(N3CCOCC3)nn2)CC1
  .	-8	7	7	0.3	i	2.9	2	5.8	-12
- CC(=O)N1c2ccc(S(=O)(=O)N3CCC(C(=O)NC4CCCCC4C)CC3)cc2CC1C (stereo not drawn)
  .	3	10	9	4.2	i	-6.5	-6	-0.7	-1
- Cc1cccc2sc(NNC(=O)C3=COCCO3)nc12
  26	-18	4	5	-1.4	i	-3.0	0	0.9	-6
- O=C(CSc1ccc(-c2ccccn2)nn1)N1CCc2ccccc21
  -27	-7	16	7	9.0	i	-1.7	3	3.0	51
- COc1ccc2cc(C(=O)N/N=C/c3sc4ccccc4c3O)ccc2c1
  7	-6	-26	-44	4.0	i	5.3	92*	22*	15
- CCOc1ccc(-c2nnn(CC(=O)N3CCCC(C)C3)n2)cc1 (stereo not drawn)
  -40	-12	-3	-2	0.8	i	-2.1	0	1.6	18
- Cc1nc(N2CCc3ccccc3C2)[nH]c(=O)c1Cc1ccccc1
  -20	-5	17	7	0.7	i	0.1	12	1.7	-6
- CCCc1nnc(NC(=O)Cn2cnc3ccccc3c2=O)s1
  -5	-3	.	.	.	.	.	-11	-2.1	-23
- COc1ccc2c(C=O)c[nH]c2c1
  -5	18	-1	-2	-1.2	i	-3.4	1	-1.0	-25
- Cc1ccc(NC(=O)C2=C(O)c3sccc3N(C)S2(=O)=O)cc1
  ?	-15	.	.	.	.	.	-2	1.0	-7
- Nc1ncc2c(n1)CC(c1ccco1)CC2=O (stereo not drawn)
  -5	2	.	.	.	.	.	-3	-1.9	6
- COc1ccc(CNC(=O)CNC(=O)[C@@H]2Cc3ccccc3CN2)cc1
  -1	-6	24	5	1.5	i	-1.3	-6	2.5	-17
- COc1ccc(N2CCN(C(=O)c3ccc4c(c3)NC(=O)C(CSCc3c(F)cccc3Cl)N4)CC2)cc1 (stereo not drawn)
  36	-6	.	.	.	.	.	-7	-7.1	-8
- C=CCn1cnc2c(NCc3ccccc3)ncnc21
  .	0	.	.	.	.	.	-3	0.4	-2
- Cc1ccc(C(=O)N2CCN(c3ncccn3)CC2)o1
  -1	-1	11	9	-0.3	.	.	-15	5.0	-18

An excerpt. The share of hits here may be higher or lower than overall.
